Screening results (PubChem BioAssay)
WNV NS2B-NS3 inh = inhibitors of West Nile virus NS2B-NS3 protease. P06935. WNV NS2B-NS3 protease, fluorogenic substrate Ex360/Em465; stronger effect = lower value. z-score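 (tested at a level between 10 and 100 µM)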. 65,000 compounds, 0.18% hits. AID 577;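 active = z-score at -3 or under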;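 also: score is relative to mean and spread of the compound wells of a plate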
Target sequence (P06935 1371-1501 limits assumed): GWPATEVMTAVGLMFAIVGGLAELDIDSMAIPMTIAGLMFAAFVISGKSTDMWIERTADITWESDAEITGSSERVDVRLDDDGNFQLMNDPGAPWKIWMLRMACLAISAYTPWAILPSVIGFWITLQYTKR
Target sequence (P06935 1502-1679 limits assumed): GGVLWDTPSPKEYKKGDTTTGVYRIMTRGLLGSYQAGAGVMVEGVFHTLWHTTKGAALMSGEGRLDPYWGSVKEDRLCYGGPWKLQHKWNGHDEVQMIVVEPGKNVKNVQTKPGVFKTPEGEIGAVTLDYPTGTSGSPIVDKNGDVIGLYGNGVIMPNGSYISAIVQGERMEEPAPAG
MT1-MMP reporter = inhibitors of MT1-MMP promoter transcription, cell-based, luciferase reporter, luminescence (AID 618); MT1-MMP promoter luciferase reporter cells, luminescence; calls from a first round at 10 µM; hits with a dose series show EC50 in µM; 87,000 compounds, 0.62% hits;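 active = over half of the reporter light lost at 10 µM or EC50 under 50 µM; inactive = the rest and hits that failed the dose series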;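 also: actives suppress MT1-MMP promoter-driven transcription so potencies describe inhibitors; HT1080 fibrosarcoma cells; overnight exposure; toxic or luciferase-blocking compounds were not removed from the actives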
Hsc70 = small molecules displacing fluorescent ligand from Hsc70 – biochemical, fluorescence polarization, primary screen (AID 568). Hsc70 fluorescence polarization, probe displacement; higher % means a stronger effect; strong numbers were not always called active. displacement, % at 20 µM; hits with a dose series show IC50 in µM. 83,000 tested, under 10 active;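 active = displacement above 50% without optical interference and an IC50 on retest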;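 also: ATPase domain with a fluorescein-tagged ATP probe; 0% = vehicle and 100% = excess ADP; read after one hour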
* hit, by the source's call; & = joins results of further samples.

The opening 11 entries, ahead of the listing:
What do the screens show for `Cc1cc(-c2ccccc2)nnc1NCCN1CCOCC1`?
WNV NS2B-NS3 inh: 0.43; MT1-MMP reporter: inactive; Hsc70: -1.9%

What do the screens show for `CN1CCN(CCC(=O)N2c3ccccc3Sc3ccc(C(F)(F)F)cc32)CC1`?
MT1-MMP reporter: inactive; Hsc70: 3.2%

What do the screens show for `COc1ccc(/C=C/C(=O)Nc2ccccc2C(=O)O)cc1OC`?
WNV NS2B-NS3 inh: 0.61; MT1-MMP reporter: inactive; Hsc70: 0.1%

Results for O=C(CCN1CCC(c2ccccc2)C1)c1ccc2c(c1)OCCO2 (stereo not given) ?
MT1-MMP reporter: inactive; Hsc70: 3.2%

Results for CCN(CC)CCNC(=O)c1cc(Cl)c(N)cc1OC ?
WNV NS2B-NS3 inh: 0.00604; MT1-MMP reporter: inactive; Hsc70: -0.9%

How did O=C(CCNNC(=O)c1ccncc1)NCc1ccccc1 do in these assays?
WNV NS2B-NS3 inh: 0.52; MT1-MMP reporter: inactive; Hsc70: 7.8%

How did OCCN1CCN(CCCN2c3ccccc3Sc3ccc(Cl)cc32)CC1 do in these assays?
WNV NS2B-NS3 inh: -0.4; MT1-MMP reporter: inactive; Hsc70: -2.8%

Results for CN(C)CCOC(C)(c1ccccc1)c1ccccn1 (stereo not given) ?
WNV NS2B-NS3 inh: -0.02; MT1-MMP reporter: inactive; Hsc70: -4.8%

How did CC(=O)NC(Cc1ccccc1)C(=O)O (stereo not given) do in these assays?
WNV NS2B-NS3 inh: -0.61; MT1-MMP reporter: inactive; Hsc70: 2.4%

How did O=C(c1ccc(F)cc1)C1CCN(CCn2c(=O)[nH]c3ccccc3c2=O)CC1 do in these assays?
WNV NS2B-NS3 inh: 0.14; MT1-MMP reporter: inactive; Hsc70: -1.9%

What do the screens show for `c1ccc(CN(CC2=NCCN2)c2ccccc2)cc1`?
WNV NS2B-NS3 inh: 0.04&0.33; MT1-MMP reporter: inactive; Hsc70: -2.8%&7.8%

The list itself, repeating the preview:
What do the screens show for `Cc1cc(-c2ccccc2)nnc1NCCN1CCOCC1`?
WNV NS2B-NS3 inh: 0.43; MT1-MMP reporter: inactive; Hsc70: -1.9%

What do the screens show for `CN1CCN(CCC(=O)N2c3ccccc3Sc3ccc(C(F)(F)F)cc32)CC1`?
MT1-MMP reporter: inactive; Hsc70: 3.2%

What do the screens show for `COc1ccc(/C=C/C(=O)Nc2ccccc2C(=O)O)cc1OC`?
WNV NS2B-NS3 inh: 0.61; MT1-MMP reporter: inactive; Hsc70: 0.1%

Results for O=C(CCN1CCC(c2ccccc2)C1)c1ccc2c(c1)OCCO2 (stereo not given) ?
MT1-MMP reporter: inactive; Hsc70: 3.2%

Results for CCN(CC)CCNC(=O)c1cc(Cl)c(N)cc1OC ?
WNV NS2B-NS3 inh: 0.00604; MT1-MMP reporter: inactive; Hsc70: -0.9%

How did O=C(CCNNC(=O)c1ccncc1)NCc1ccccc1 do in these assays?
WNV NS2B-NS3 inh: 0.52; MT1-MMP reporter: inactive; Hsc70: 7.8%

How did OCCN1CCN(CCCN2c3ccccc3Sc3ccc(Cl)cc32)CC1 do in these assays?
WNV NS2B-NS3 inh: -0.4; MT1-MMP reporter: inactive; Hsc70: -2.8%

Results for CN(C)CCOC(C)(c1ccccc1)c1ccccn1 (stereo not given) ?
WNV NS2B-NS3 inh: -0.02; MT1-MMP reporter: inactive; Hsc70: -4.8%

How did CC(=O)NC(Cc1ccccc1)C(=O)O (stereo not given) do in these assays?
WNV NS2B-NS3 inh: -0.61; MT1-MMP reporter: inactive; Hsc70: 2.4%

How did O=C(c1ccc(F)cc1)C1CCN(CCn2c(=O)[nH]c3ccccc3c2=O)CC1 do in these assays?
WNV NS2B-NS3 inh: 0.14; MT1-MMP reporter: inactive; Hsc70: -1.9%

What do the screens show for `c1ccc(CN(CC2=NCCN2)c2ccccc2)cc1`?
WNV NS2B-NS3 inh: 0.04&0.33; MT1-MMP reporter: inactive; Hsc70: -2.8%&7.8%

Results for CC(COc1ccccc1)NC(C)C(O)c1ccc(O)cc1 (stereo not given) ?
WNV NS2B-NS3 inh: 1.41; MT1-MMP reporter: inactive; Hsc70: -2.8%

How did CCN(CC)CCOC(=O)C1(c2ccccc2)CCCC1 do in these assays?
MT1-MMP reporter: inactive; Hsc70: 3.5%

What do the screens show for `CCC(C)n1ncn(-c2ccc(N3CCN(c4ccc(OCC5COC(Cn6cncn6)(c6ccc(Cl)cc6Cl)O5)cc4)CC3)cc2)c1=O` (stereo not given)?
WNV NS2B-NS3 inh: 0.24; MT1-MMP reporter: inactive; Hsc70: 1.0%

Results for CC[N+](C)(CC)CCOC(=O)C(O)(c1ccccc1)C1CCCCC1 (stereo not given) ?
WNV NS2B-NS3 inh: 0.09; MT1-MMP reporter: inactive; Hsc70: -2.8%

What do the screens show for `CCOc1ccc(C(=O)OCCN(CC)CC)cc1`?
MT1-MMP reporter: inactive; Hsc70: -9.1%

What do the screens show for `C[C@]12CCC(=O)C=C1CC[C@@H]1[C@@H]2CC[C@@]2(C)[C@H]1CC[C@]2(O)C(=O)CO`?
WNV NS2B-NS3 inh: -0.1; MT1-MMP reporter: inactive; Hsc70: -3.8%

Results for Oc1ccc(/C=C/c2cc(O)cc(O)c2)cc1 ?
WNV NS2B-NS3 inh: 0.13; MT1-MMP reporter: active; Hsc70: 0.1%

Results for O=S(=O)(c1cccc2cnccc12)N1CCCNCC1 ?
WNV NS2B-NS3 inh: -0.32; MT1-MMP reporter: inactive; Hsc70: 1.0%

What do the screens show for `c1ccc(CC2=NCCN2)cc1`?
MT1-MMP reporter: inactive; Hsc70: 1.4%

How did Cc1nc2ccccn2c(=O)c1CCN1CCC(C(=O)c2ccc(F)cc2)CC1 do in these assays?
WNV NS2B-NS3 inh: 0.42; MT1-MMP reporter: inactive; Hsc70: 1.0%

What do the screens show for `C1CCC(C(CC2CCCCN2)C2CCCCC2)CC1` (stereo not given)?
WNV NS2B-NS3 inh: 0.01; MT1-MMP reporter: inactive; Hsc70: 1.0%

The list is partial (hit frequency here may not be typical).
